HSV replic up = HSV replication enhancement; maximum fold increase; HSV replication augmentation in cells, fold increase; 0.005% of 220,000 active; AID 1956;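 active = peak rise of 1.5-fold or more in the series; tested in PC3 cells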;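 note: first round at 10 µM; read as green reporter fluorescence; hits show the peak of a series up to 25 µM; 1 = signal of infected wells without compound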
INS promoter inh = TRM-6 insulin promoter activity inhibition; 0.9% of 130,000 active; inhibition, % at 2 µM; TRM-6 cells (human fetal islet line), insulin promoter-eGFP reporter, imaging; reporter expression induced with tamoxifen; AID 1273;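 active = inhibition above the mean plus 3 SD, with well images judged a real hit on visual review, cut at about 60% in these data, passing the limit was not always enough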
GALR2 agonist = agonists of human galanin receptor 2 (GALR2) | GALR2-expressing cells, agonist activation read-out | activation, %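 (tested at 5 µM)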 | 0.48% of 140,000 active;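 active = above mean plus 3 SD of all compounds, about 5% in these data, not always enough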;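 note: 0% = vehicle buffer wells and 100% = reference agonist at full effect; tested in CHO reporter cells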
RGS16-Gao = RGS16-Galphao interaction regulator (human); AID 1441; binding response (% of control), % at 10 µM; O15492+P09471; bead-based flow cytometry RGS16-Galphao binding, fluorescence; actives lie on both sides; 0.38% of 220,000 active;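 active = below 25% or above 175%, edge rows of some plates excepted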;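 note: Galphao activated by GDP with aluminum fluoride before binding; 100% = wells without compound and 0% = beads without RGS; some results beyond the cut were filed as inactive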
PKD1 kinase inh = PKD1 (human) kinase inhibition. inhibition, %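 (about 10 µM by stock and volumes)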. PKD1 kinase fluorescence polarization assay. 0.056% of 200,000 active;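 active = inhibition of 50% or more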;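 note: controls were vehicle for no effect and a reference inhibitor for full effect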
Target sequence (Q15139 whole entry, looked up): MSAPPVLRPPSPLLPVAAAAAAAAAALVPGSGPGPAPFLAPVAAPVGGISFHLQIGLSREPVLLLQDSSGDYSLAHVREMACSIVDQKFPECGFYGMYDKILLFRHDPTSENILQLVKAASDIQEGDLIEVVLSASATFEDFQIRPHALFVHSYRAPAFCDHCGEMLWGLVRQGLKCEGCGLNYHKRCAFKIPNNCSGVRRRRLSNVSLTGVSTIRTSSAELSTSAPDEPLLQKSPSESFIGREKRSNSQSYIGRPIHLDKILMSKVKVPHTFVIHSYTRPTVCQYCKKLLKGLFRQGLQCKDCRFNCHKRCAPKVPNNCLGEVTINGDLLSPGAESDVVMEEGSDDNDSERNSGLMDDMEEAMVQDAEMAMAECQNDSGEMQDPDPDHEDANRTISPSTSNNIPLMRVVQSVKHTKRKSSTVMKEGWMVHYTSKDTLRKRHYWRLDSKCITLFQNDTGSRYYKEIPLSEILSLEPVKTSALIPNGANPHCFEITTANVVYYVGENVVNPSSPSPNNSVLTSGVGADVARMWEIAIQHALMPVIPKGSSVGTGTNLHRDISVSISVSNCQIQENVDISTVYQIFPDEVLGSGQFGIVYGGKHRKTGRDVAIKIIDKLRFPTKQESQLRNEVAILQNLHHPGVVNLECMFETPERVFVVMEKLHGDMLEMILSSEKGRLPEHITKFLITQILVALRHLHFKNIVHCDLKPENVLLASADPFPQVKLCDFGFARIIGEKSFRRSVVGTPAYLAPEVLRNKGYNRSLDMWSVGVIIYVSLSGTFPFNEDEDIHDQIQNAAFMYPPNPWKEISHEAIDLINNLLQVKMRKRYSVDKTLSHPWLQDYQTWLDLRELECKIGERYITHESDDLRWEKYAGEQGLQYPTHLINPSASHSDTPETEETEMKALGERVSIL
INS promoter inh cell count = also measured in INS promoter inh; calls as there; normalized cell count, %; measured here: cell count, toxicity; reference of the scale not given here;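 cells exposed to compound for 48 h; stained nuclei by imaging scaled within each plate; lower means fewer cells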
HSV replic up primary fold = second read-out of HSV replic up, no call of its own (marks repeat the call); fold increase; compound at 10 µM; measured here: primary screen fold increase 10 uM; tested in PC3 cells;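 GFP signal in the first replicate; 1 = infected wells without compound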
Starred values were filed as active, the others as inactive; i = inactive; x = no result given. The order is random; about 1.3% have a hit in one of these screens.

SMILES	HSV replic up	HSV replic up primary fold	INS promoter inh	INS promoter inh cell count	GALR2 agonist	RGS16-Gao	PKD1 kinase inh
Cc1ccc(SCc2c(C(=O)N/N=C/C3CC=CCC3)nnn2-c2nonc2N)cc1 (stereo unspecified)	i	0.99	x	x	x	98.5	x
Cc1nc(NC(=O)COc2ccccc2)sc1C(=O)Nc1ccccc1	i	0.85	-3.9	138.4	-2.2	103.9	-4.1
COc1ccc(CNC(=O)COC(=O)/C=C/c2ccco2)cc1	i	1.02	-36.4	42.9	x	162.2	1.7
CC1CN(C(=O)c2cc3ccccc3oc2=O)CC(C)O1 (stereo unspecified)	i	0.71	43.5	117.1	-2.0	105.8	-4.4
COc1ccc(CNC(=O)C2CCCN2S(=O)(=O)c2ccc(C)cc2)cc1 (stereo unspecified)	i	1	x	x	-0.5	98.5	-6.1
C/C(=N\N=C(/N)SC1CC(=O)N(c2ccc(Cl)cc2)C1=O)c1cccs1 (stereo unspecified)	i	0.95	15.9	159.2	-0.9	106.3	5.2
OCCN1CCN(C(=S)Nc2ccc(Oc3ccccc3)cc2)CC1	i	0.87	x	x	x	101.9	4.9
COc1ccc(CCNS(=O)(=O)c2ccc(C3CNC(=O)C3)cc2)cc1OC (stereo unspecified)	i	0.99	-67.4	85.9	-1.8	x	-11.5
CC(=O)c1c(C)[nH]c(-c2ccccc2)c1C	i	0.94	43.8	102.0	-0.9	29.5	0.6
Cc1ccc(N2CC(C(=O)NCc3cccnc3)CC2=O)cc1 (stereo unspecified)	i	1.11	x	x	-1.7	96.8	-4.2
Nc1nnc(CC(=O)N/N=C\c2ccc(-c3cccc(Cl)c3)o2)s1	i	0.94	x	x	x	97.2	x
O=C(CSc1nnc(NC(=O)C2CCC2)s1)NC1CC1	i	0.98	-10.8	113.8	-0.2	109.8	0.4
CN1/C(=N\O)c2cccc3cccc1c23	i	0.86	-6.7	143.0	6.6	94.5	0.7
ClC(Br)=C(n1cnc2ccccc21)n1cnc2ccccc21	x	x	-2.6	84.7	-0.4	100.8	-1.0
O=C(NCc1ccccc1)c1onc(CSc2ccc(Cl)cc2)c1C(=O)NCc1ccccc1	i	0.88	x	x	x	98.9	x
CCn1c(SCC(=O)NCc2ccccc2)nc2nc3c(cc2c1=O)CCCC3	i	0.91	x	x	x	101.0	-3.9
COc1ccc(-c2nnc(Nc3nc4c(OC)cccc4s3)o2)c(OC)c1	i	0.69	-30.4	81.3	-1.3	100.2	-12.4
CCNC(=S)Nc1cc(OCC)c(NC(=O)c2cccs2)cc1OCC	i	1.05	34.5	103.1	-0.8	50.2	-8.9
COc1ccc(CN2C(=O)CS/C2=N/N=C/c2cccs2)cc1	i	0.95	x	x	x	97.0	x
O=C(NCCN1CCOCC1)c1sc2ccccc2c1Cl	i	1.2	45.5	96.3	x	92.1	6.6
Cc1cc(C)c(NC(=O)C(C)Sc2nnc(-c3ccco3)n2-c2ccccc2)c(C)c1 (stereo unspecified)	i	0.95	x	x	-2.4	103.7	0.2
O=C(O)CCC(=O)Nc1ccc(C(=O)N2CCCCC2)cc1	i	1.07	14.3	200.0	-0.4	100.1	-3.3
CCC1Oc2ccccc2N(CC(=O)NCCCN2CCCCC2C)C1=O (stereo unspecified)	i	1.06	-7.7	132.0	-2.0	103.7	-2.2
Cc1ccc(S(=O)(=O)Oc2cccc(/C=N/n3cnnc3)c2)cc1	i	0.85	34.2	93.8	-0.8	101.2	-4.1
CC(C)OCCCn1c(-c2ccc(Br)cc2)c[nH]c1=S	i	1.04	x	x	x	96.6	1.9
Cn1c(=O)c2c(nc(CN3CCN(Cc4ccccc4)CC3)n2CCN2CCOCC2)n(C)c1=O	i	0.81	x	x	-2.5	100.0	-5.1
CC1(C)Cc2c(sc3c2c(=O)n(-c2ccc(Cl)cc2)c(=O)n3CC(N)=O)CO1	i	0.95	x	x	x	97.7	x
CCc1ccccc1NC(=O)CSc1nnc(CCNC(=O)OC(C)(C)C)o1	i	0.98	x	x	x	102.8	x
COCCCNC(=O)CCc1nc(-c2ccccc2)no1	i	0.85	x	x	-0.6	103.7	3.3
CN1CCN(Cc2nc(Cc3cccc(F)c3)no2)CC1c1ccccc1 (stereo unspecified)	i	0.96	x	x	x	96.4	2.7
COC(=O)/C(=C/c1cn(C(C)=O)c2ccccc12)[N+](=O)[O-]	i	1.01	x	x	x	93.1	x
Cc1sc2ncnc(Sc3ccccc3C(=O)Nc3ccc(Br)cc3)c2c1C	i	0.96	x	x	0.2	98.7	-4.5
NC(=O)c1ccccc1NC(=O)Nc1cccc(Cl)c1	i	0.81	-17.9	98.7	-1.6	95.4	-4.7
O=C(COc1ccccc1)Nn1cnc2ccccc21	i	0.87	64.3	108.7	-1.1	99.8	-0.9
N#Cc1c(N)nc(SCc2ccccc2)c(C#N)c1-c1ccco1	i	1.08	x	x	-1.1	96.5	-6.6
COCc1cc(C)nc(N/N=C/c2ccc(Cl)c(Cl)c2)c1C#N	i	1.02	-10.8	46.5	-2.2	105.4	-12.2
CC1CCN(C(=O)Oc2ccccc2)CC1	i	0.96	14.3	110.9	x	104.3	-11.0
Cc1ccccc1Oc1ccc(-c2nc(N)nc(N)n2)cc1	i	0.79	16.2	144.9	-0.8	105.3	-2.7
COc1ccc(NC(=O)C(CCS(C)(=O)=O)NC(C)=O)cc1 (stereo unspecified)	i	0.82	-90.9	78.8	-0.7	104.6	-12.8
CC1CCCN(C(=O)c2cc3c(-c4ccc(Cl)cc4)nn(C)c3s2)C1 (stereo unspecified)	i	0.93	x	x	1.7	102.8	-6.5
CC(C)CCN1CCN(Cc2cn[nH]c2C2CCCCC2)CC1CCO (stereo unspecified)	i	0.93	x	x	x	101.2	-2.3
O=C(OCC(=O)N1CCN(C(=O)c2ccco2)CC1)c1sc2ccccc2c1Cl	i	0.86	-45.5	165.0	0.1	108.3	-10.2
COc1ccc(CN2CCOCCOCCOCCOCC2)cc1	i	1.26	x	x	x	103.2	x
Cc1cccc(NC(=O)C2CCCN(S(=O)(=O)c3ccc4c(c3)oc(=O)n4C)C2)c1 (stereo unspecified)	i	1	x	x	x	96.5	x
CNC(=O)COC(=O)/C=C/c1ccco1	i	1.08	x	x	x	105.1	1.4
Cc1cc(NC(=O)CSc2cn(CCNC(=O)c3ccc(F)cc3)c3ccccc23)no1	i	0.88	-11.8	94.2	-0.3	99.3	-6.3
OC(C#Cc1ccccn1)c1cccs1 (stereo unspecified)	i	1.05	x	x	-1.8	100.0	-4.6
Fc1ccc(C2CC(c3ccco3)=NN2c2ccccc2)cc1 (stereo unspecified)	i	0.99	x	x	5.5	93.7	-7.2
O=S(=O)(c1ccc(OCC(O)CNC23CC4CC(CC(C4)C2)C3)c(Cl)c1)N1CCOCC1 (stereo unspecified)	i	0.82	x	x	x	101.0	-3.9
O=C(Nc1ccccc1C(=O)NCCc1ccccc1)c1ccco1	i	1.01	0.0	150.9	-4.1	99.1	-10.9
CNC(=O)COc1ncnc2sc(C)c(C)c12	i	1.02	2.7	81.8	-2.2	94.2	-2.2
O=C(O)CCCC(=O)Nc1nc(-c2ccccc2)cs1	i	0.93	58.3	117.2	0.0	71.6	4.1
CCCCCCCCCC(=O)N/N=C/c1ccc(C)s1	i	1.01	21.6	62.9	-2.2	109.8	-3.5
CC(C)C(NC(=O)c1ccc(F)cc1)C(=O)OCC(=O)N1CC(=O)Nc2ccccc21 (stereo unspecified)	i	1.04	13.5	63.7	-2.8	100.1	-3.6
CCOC(=O)C1=C(C)NC2=C(C(=O)CC(C)(C)C2)C1c1cccc(C)n1 (stereo unspecified)	i	1.08	-9.1	142.9	0.9	x	1.0
NC(=O)CSc1nnc2ccc(-c3ccco3)nn12	i	1.05	68.4*	48.4*	x	87.5	4.1
CC1(C)CC(=O)C=C(NNC(=O)C2CCCCC2)C1	i	1.03	44.4	141.3	-1.5	110.0	-1.0
CS(=O)(=O)c1cccc(NC(=O)C2CC2)c1	i	0.98	x	x	x	99.2	-3.3
O=C(Nc1nnc(Cc2ccccc2)s1)c1cnccn1	i	0.98	26.3	114.5	x	98.2	4.5
N#C/C(=C\c1cccs1)C(=O)NCc1ccccc1	i	0.97	x	x	-0.5	105.8	3.3
More structures.
SMILES	HSV replic up	HSV replic up primary fold	INS promoter inh	INS promoter inh cell count	GALR2 agonist	RGS16-Gao	PKD1 kinase inh
CCN=C1SC(CC(=O)Nc2ccccc2)C(=O)N1CC (stereo unspecified)	i	0.88	-22.1	100.0	-2.2	187.3	-7.7
O=C(O)CCSc1nnc(-c2ccc3c(c2)OCO3)o1	i	0.86	-5.9	92.1	-2.2	109.1	-8.1
CC(=O)OC(C(=O)N1CCN(c2ccccc2F)CC1)c1ccccc1 (stereo unspecified)	i	0.96	-7.9	258.7	-1.2	102.6	-0.3
O=C1c2ccccc2C(=O)N1CCCCN(C(=O)c1cc([N+](=O)[O-])ccc1Cl)c1ccc(Cl)cc1	i	0.98	-10.7	76.8	-2.0	95.0	-3.3
CSc1nnc(-c2ccc(C(F)(F)F)nc2C)o1	i	0.92	x	x	x	103.6	x
OCCC1CN(C2CSCCSC2)CCN1Cc1ccccc1 (stereo unspecified)	i	0.94	x	x	x	108.8	13.2
Oc1ccc2oc3c(c2c1)CCCC3	i	0.96	5.6	91.2	-1.5	99.9	3.9
O=C(c1ccc(Cl)cc1)C1C2C(=O)N(c3ccccc3)C(=O)C2C2CCCN21 (stereo unspecified)	i	1.17	21.9	93.2	-1.6	122.5	1.5
O=c1nc(-c2ccccc2)cn[nH]1	i	1.06	-29.0	148.9	-2.1	98.1	-7.9
O=C(NCc1cccs1)c1cccnc1Cl	i	0.96	-15.6	140.2	0.6	100.7	3.6
Cc1ccc(S(=O)(=O)NCCCNc2ccc([N+](=O)[O-])cc2)cc1	i	1.05	42.9	113.2	x	124.3	-5.4
COc1ccc(Cc2nnc(SCc3ccc([N+](=O)[O-])cc3)o2)cc1	i	1.14	0.0	76.0	x	100.7	2.3
CN(C)CCCNC(=O)c1cc2c3ccccc3n(C)c2s1	i	0.91	50.0	115.4	-0.4	102.3	-0.3
C/C(CC(=O)NC(C)(C)C)=N\NC(=O)c1ccccc1N	i	0.88	18.5	95.1	x	103.6	-2.7
CCc1nnc(NC(=O)c2cc(S(=O)(=O)N3CCN(c4ccccc4)CC3)ccc2Cl)s1	i	1.05	-21.1	125.5	-0.6	101.5	-0.3
O=C(O)C1C2C=CC3(CN(C4CCCC4)C(=O)C13)O2 (stereo unspecified)	i	0.97	x	x	0.2	99.5	-10.3
Cc1cc(N)n2nc(C(F)(F)F)nc2n1	i	0.67	-6.7	130.3	x	100.4	0.8
COC(=O)C1CSC(C(=O)OC)N1C(=O)Nc1c(C)cccc1C (stereo unspecified)	i	0.97	7.1	96.0	-2.6	102.4	-0.7
O=C1CCCc2ccccc2N1Cc1ccccc1	i	1	x	x	x	101.5	-1.0
O=C(COC(=O)CNC(=O)c1ccco1)Nc1ccc(Cl)cn1	i	1.03	25.7	116.8	-1.3	97.8	-2.7

Arranged by length of the SMILES (smallest number first): some entries from above
SMILES	HSV replic up	HSV replic up primary fold	INS promoter inh	INS promoter inh cell count	GALR2 agonist	RGS16-Gao	PKD1 kinase inh
Oc1ccc2oc3c(c2c1)CCCC3	i	0.96	5.6	91.2	-1.5	99.9	3.9
O=C(NCc1cccs1)c1cccnc1Cl	i	0.96	-15.6	140.2	0.6	100.7	3.6
O=C1CCCc2ccccc2N1Cc1ccccc1	i	1	x	x	x	101.5	-1.0
Cc1cc(N)n2nc(C(F)(F)F)nc2n1	i	0.67	-6.7	130.3	x	100.4	0.8
OCCC1CN(C2CSCCSC2)CCN1Cc1ccccc1 (stereo unspecified)	i	0.94	x	x	x	108.8	13.2
CCN=C1SC(CC(=O)Nc2ccccc2)C(=O)N1CC (stereo unspecified)	i	0.88	-22.1	100.0	-2.2	187.3	-7.7
C/C(CC(=O)NC(C)(C)C)=N\NC(=O)c1ccccc1N	i	0.88	18.5	95.1	x	103.6	-2.7
CC(=O)OC(C(=O)N1CCN(c2ccccc2F)CC1)c1ccccc1 (stereo unspecified)	i	0.96	-7.9	258.7	-1.2	102.6	-0.3
COc1ccc(Cc2nnc(SCc3ccc([N+](=O)[O-])cc3)o2)cc1	i	1.14	0.0	76.0	x	100.7	2.3
Cc1ccc(S(=O)(=O)NCCCNc2ccc([N+](=O)[O-])cc2)cc1	i	1.05	42.9	113.2	x	124.3	-5.4
O=C(c1ccc(Cl)cc1)C1C2C(=O)N(c3ccccc3)C(=O)C2C2CCCN21 (stereo unspecified)	i	1.17	21.9	93.2	-1.6	122.5	1.5
O=C1c2ccccc2C(=O)N1CCCCN(C(=O)c1cc([N+](=O)[O-])ccc1Cl)c1ccc(Cl)cc1	i	0.98	-10.7	76.8	-2.0	95.0	-3.3

Source: PubChem BioAssay
